Cruzain inh Det = cruzain (T. cruzi) inhibition with detergent; purified cruzain, Z-FR-AMC fluorescence, 0.01% Triton; Potency, µM, for the others: max response, negative = inhibition, hits mostly inhibitors; hit rate 0.43% among 200,000; AID 1478;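 note: plate controls were neutral wells for no effect and buffer without enzyme for full effect; nearly all actives have a fitted effect of over 40% in size; top concentration of the series not given in the record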
Target sequence (P25779 123-467 limits assumed): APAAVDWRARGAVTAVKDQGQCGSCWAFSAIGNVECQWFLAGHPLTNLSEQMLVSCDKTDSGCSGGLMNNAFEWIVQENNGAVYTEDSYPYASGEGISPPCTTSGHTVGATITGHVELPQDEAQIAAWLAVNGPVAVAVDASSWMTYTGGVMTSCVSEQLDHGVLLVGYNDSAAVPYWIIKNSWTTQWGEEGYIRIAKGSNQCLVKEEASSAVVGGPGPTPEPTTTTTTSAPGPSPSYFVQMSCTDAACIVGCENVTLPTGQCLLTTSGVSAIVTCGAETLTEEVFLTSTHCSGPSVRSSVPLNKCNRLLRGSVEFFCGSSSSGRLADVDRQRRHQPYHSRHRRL
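Cysteine protease activity tested under reducing, mildly acidic conditions (100 mM sodium acetate pH 5.5, 5 mM DTT) plus 0.01% Triton X-100. Cruzain 1.5 nM; substrate Z-FR-AMC 2 uM; 15 min compound preincubation at room temperature.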
Lassa entry inh = blocks Lassa virus binding to or entry into cells; Potency, µM (highest dose often 37.9 µM), without a hit: at the highest dose activity change, negative = inhibition, usual class: inhibitors; Lassa virus pseudotype entry inhibition, cell reporter; control for the full effect not named in the record; hit rate 1.2% among 300,000; active means well fitted inhibition curve with a large enough effect; inconclusive means small, poorly fitted or top-dose-only effect, or effect the other way; inactive means flat fitted curve, though single readings scatter; tested in HEK293 cells; note: % is set by controls: 0 for no effect and ±100 for the full control effect; nearly all actives have a fitted effect of over 50% in size; luciferase read-out
Cruzain noTriton = inhibitors of Trypanosoma cruzi cruzain without detergent; hit rate 2.3% among 200,000; Potency, µM, for the others: max response, negative = inhibition, hits mostly inhibitors; purified cruzain, Z-FR-AMC fluorescence, no detergent; P25779;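 note: plate controls were enzyme without inhibitor for no effect and buffer without enzyme for full effect; nearly all actives have a fitted effect of over 40% in size; top concentration of the series not given in the record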
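Detergent-free condition (0.00005% Triton X-100) in acetate buffer pH 5.5 with DTT. 1.5 nM enzyme and compound were pre-mixed 15 min, then 2 uM Z-FR-AMC substrate added; reaction progress from fluorescence change between first and third reads (60 s).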
Marburg entry inh = blocks Marburg virus binding to or entry into cells. AID 540276. Potency, µM (titrated, usually from 37.8 µM), for the others: at the highest dose activity change, negative = inhibition, most hits filed as inhibitors. Marburg virus pseudotyped entry inhibition, cell reporter; control for the full effect not named in the record; about a third of the inactives were read at about 46 µM. hit rate 1.8% among 300,000; active = well fitted inhibition curve with a large enough effect; inconclusive = small, poorly fitted or top-dose-only effect, or effect the other way; inactive = flat fitted curve, though single readings scatter; tested in HEK293 cells; about a fifth of its hits are not listed in these tables; note: % is set by controls: 0 for no effect and ±100 for the full control effect; luciferase read-out
RE007 growth inh = less growth of the S. pombe RE007 Vpr strain; S. pombe RE007 Vpr strain, BacTiter-Glo ATP luminescence, 24 h; control for the full effect not named in the record; Potency, µM (titrated, usually from 92.2 µM), without a hit: at the highest dose activity change, negative = less growth; hit rate 0.21% among 360,000; AID 651644; active = well fitted falling curve with a large enough effect; inconclusive = small, poorly fitted or top-dose-only effect; inactive = no such curve, though single readings can be large or run the other way;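 note: % is set by controls: 0 for no effect and ±100 for the full control effect; nearly all actives have a fitted effect of over 50% in size; the assay follows cell death caused by Vpr and the record does not say whether a fall means rescue or toxicity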
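Fission yeast strain RE007, carrying one chromosomally integrated HIV-1 vpr copy, was seeded at OD 0.01 in PMG+AL medium with 23 nL pinned compound. After 24 h at 30 °C and 99% humidity, viability was read by BacTiter-Glo luminescence.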
SARS PLP yeast = blocks SARS-CoV papain-like protease in a yeast assay. S. cerevisiae expressing SARS-CoV PLpro, growth rescue; control for the full effect not named in the record. hit rate 0.19% among 330,000. AID 485353. Potency, µM (doses to about 32.9 µM), for the others: at the highest dose activity, positive = growth rescue; active means well fitted rising curve with a large enough effect; inconclusive means small, poorly fitted or top-dose-only effect; inactive means no such curve, though single readings can be large or run the other way; note: 0% is about no effect; nearly all actives have a fitted effect of over 55% in size; growth read by luminescence after 48 h
2A StopGo = lowers the luciferase signal of an FMDV 2A StopGo reporter; hit rate 1.2% among 410,000; human cells with a luciferase reporter of 2A StopGo recoding; control for the full effect not named in the record; Potency, µM (highest dose often 57.9 µM), for the others: top-dose signal change, negative = less light; AID 1159524; active = well fitted falling curve with a large enough effect; inconclusive = small, poorly fitted or top-dose-only effect; inactive = no such curve, though single readings can be large or run the other way; tested in HEK293T cells; note: % is set by controls: 0 for no effect and ±100 for the full control effect; nearly all actives have a fitted effect of over 45% in size; luciferase light after 4 h
NS1 function inh = inhibitors of influenza NS1 protein function; S. cerevisiae slowed by influenza A NS1, growth recovery by OD600; Potency, µM (titrated, usually from 46.1 µM), for the others: at the highest dose activity, positive = more growth; hit rate 0.4% among 270,000; active means well fitted rising curve with a large enough effect; inconclusive means small, poorly fitted or top-dose-only effect; inactive means no such curve, though single readings can be large or run the other way; note: nearly all actives have a fitted effect of over 50% in size
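A cell-based growth assay was used: compounds that relieve NS1-induced slow growth of budding yeast raise OD600. Assay medium was yeast nitrogen base with ammonium sulphate and -URA supplement, pH 6.0, with 2% galactose.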
Numbers without * were called inactive; ? = inconclusive; . = no result given; & = joins results of further samples; [ ] = another dose, or the depositor's remark. Unless noted, calls come from the whole dose curve; as a rule, active = well fitted curve in the direction sought with a large enough effect; inconclusive = small, poorly fitted or top-dose-only effect, or another doubt; inactive = no such curve, though single readings can be large; an effect the other way counts as inactive or inconclusive. Potency is the fitted concentration of half-maximal effect.

nr	SMILES	Cruzain inh Det	Lassa entry inh	Cruzain noTriton	Marburg entry inh	RE007 growth inh	SARS PLP yeast	2A StopGo	NS1 function inh
1	CN(C/C=C/C#CC(C)(C)C)Cc1cccc2ccccc12	0.0%	.	-1%	.	9%[18.4 µM]	.	?	.
2	COC(=O)c1[nH]c2ccc(C)cc2c1NC(=O)CN1CCCC(C)(C)C1	-1.8%	?	-2%	?	-6%	-5%	7%	2%
3	CCOc1ccc(C2/C(=C(\O)c3cccc(OC)c3)C(=O)C(=O)N2c2cc(C)on2)cc1OC (stereo not drawn)	-1.7%	8%	16%	-2%	15%	-1%	-22%	4%
4	O=C(COc1ccc(F)cc1)N(Cc1cccs1)C1CCS(=O)(=O)C1 (stereo not drawn)	.	.	.	.	-1%	0%	-23%	9%
5	CCCCN(CC)Cc1c(C)[nH]c2c(ccc3ccccc32)c1=O	.	?	.	5%	-1%	1%	-17%	6%
6	CC(C)(C)NC(=O)CN(Cc1ccco1)C(=O)CCC(=O)Nc1nccs1	.	?	.	14%[46.1 µM]	-4%	-11%	19%	2%
7	CC(=O)Nc1ccc(S(=O)(=O)N2C(C)CCCC2C)cc1 (stereo not drawn)	.	.	.	.	-3%	-3%	4%	6%
8	O=C(OCC#CCSc1nnc(-c2ccc(Br)cc2)o1)c1cccs1	-2.0%	17%&1%	8%	11%&2%	-13%	?	12%	-19%
9	CC1CCc2c(sc(NC(=O)COC(=O)C3CCCO3)c2C#N)C1 (stereo not drawn)	.	.	.	.	3%	-5%	36%[activator]	-20%
10	O=C(NCC1CCCO1)c1cccc(-n2cnnn2)c1 (stereo not drawn)	4.6%	4%	1%	-6%[46.1 µM]	-1%	0%	-9%	-6%
11	C/C(=N\NC(=O)COc1ccc([N+](=O)[O-])cc1)C(C)(C)C	3.3%	-5%	-9%	16%	5%	-6%	21%	19%
12	Cc1ccccc1N1CCN(CC(=O)Nc2nccs2)CC1	.	1%	.	-2%	8%	-5%	-13%	5%
13	COc1ccc(Sc2nnc(-c3ccccc3)cc2C#N)cc1	1.8%	-8%	-5%	0%	23%	10%	0%	3%
14	Cc1ccc(OCCSc2nc3ncnc(N)c3[nH]2)cc1	.	-28%	.	-11%	-2%	-3%	-19%	.
15	CCCCn1c(N)c(Br)c(=O)[nH]c1=O	.	.	.	.	-8%	1%	-7%	-1%
16	CSc1cccc(NC(=O)c2cnn3ccccc23)c1	.	?	.	?	-18%	-1%	14%	-1%
17	Cc1c(CCOC(=O)c2ccc(N3CCOCC3)c([N+](=O)[O-])c2)sc[n+]1CC#N	.	13µM*	.	?	73%	2%	?	5%
18	CCC(NC(=O)c1ccccc1NC(=O)c1ccco1)C(=O)NNC(=O)c1ccc(OC)cc1 (stereo not drawn)	-0.1%	?	1%	?	80%	-2%	3%	6%
19	O=C(CCN1C(=O)c2ccccc2C1=O)NC1=NCCS1	3.2%	-13%	-8%	-15%[46.1 µM]	-9%	-1%	5%	-2%
20	O=C(CCNS(=O)(=O)c1cccc2nonc12)N1CCN(c2cccc(Cl)c2)CC1	4.0%	-1%	19%	?	6%	-1%	-5%	-10%
21	O=C(c1ccco1)N1CCN(C(=O)c2cnn3c(C(F)(F)F)cc(-c4cccs4)nc23)CC1	-4.1%	6%	-6%	-8%	0%	0%	.	-1%
22	O=C(CNc1ccccc1)c1ccc([N+](=O)[O-])cc1	-2.5%	4%	-11%	?	0%	13%	4%	11%
23	OCC1CCCC(n2cnc3c(=S)nc[nH]c32)O1 (stereo not drawn)	.	?	.	13%[46.1 µM]	6%	0%	-11%	5%
24	COC(=O)c1sccc1NC(=O)/C=C\c1ccc(Cl)cc1Cl	3.2%	17%	3.2µM*	?	-3%	18%	24%	14%
25	CCOC(=O)C1CCCN(C(=O)C2CCCN(S(C)(=O)=O)C2)C1 (stereo not drawn)	4.3%	26%	-3%	0%	0%	2%	5%	2%
26	COc1ccccc1CNc1n[nH]c(NCc2ccccc2OC)n1	-4.1%	-9%	8%	-19%	-1%	-4%	-19%	1%
27	COc1cc2c(cc1OC)CN(C(=O)c1ccc(Br)o1)CC2	.	16%	.	8%	8%	0%	-11%	-6%
28	CN1C(=O)C(CC(=O)NCC2CCCCC2)SC1=Nc1ccccc1 (stereo not drawn)	.	.	.	.	14%	0%	-7%	-1%
29	Cc1sc(-n2c(C)ccc2C)c(C#N)c1C	-5.3%	2%	0%	16%&16%	5%	2%	6%	5%
30	COC(=O)c1cc(OC)c(OC)cc1NC(=O)CCNC(=O)c1ccco1	.	19%[46.1 µM]	.	?	6%	-1%	-9%	-1%
31	CCn1c(CNC(=O)c2ccc(OC)c(OC)c2)nnc1SCC(=O)c1ccc(OC)cc1	-9.0%	-5%	0%	-23%	-8%	-4%	?	-39%
32	CCCC1CCC(=NNS(=O)(=O)c2ccc(C)c([N+](=O)[O-])c2)CC1 (stereo not drawn)	-0.2%	5%	4%	?	5%	4%	-6%	-5%
33	Cc1ccc2oc(-c3cc(NC(=O)c4ccco4)ccc3Cl)nc2c1	-11%	-4%[46.1 µM]	0%	.	.	.	4%	.
34	O=C(Cn1ccc([N+](=O)[O-])n1)N1CCCc2ccccc21	1.4%	17%	1%	-19%	-4%	-1%	.	17%
35	CCOC(=O)Cn1c(C)cc(COC)c(C#N)c1=O	.	.	.	.	9%	1%	-10%	3%
36	CN(CC(=O)Nc1ccc(F)cc1)C(=O)c1ccc2ccccc2n1	.	27%	.	9%[46.1 µM]	19%	0%	9%	.
37	O=C(COC(=O)Cn1cnc2ccccc21)Nc1ccc2c(c1)OCCO2	2.4%	-1%	-1%	?	-2%	7%	4%	5%
38	Nc1nn(-c2ccccc2)c(N)c1N=Nc1cccc(F)c1	.	.	.	.	-15%	-3%	43%[activator]	-7%
39	Cc1cc(-n2c(C)cc(C(=O)COc3ccc([N+](=O)[O-])cc3)c2C)no1	.	.	.	.	-6%	0%	-5%	7%
40	Cc1cc(C)c(S(=O)(=O)c2ccccc2)c(Cl)n1	2.5%	13%	-4%	5%	13%	-2%	-7%	3%
41	COc1ccccc1C(=O)NCC(=O)OCC(=O)Nc1ccc2[nH]c(=O)[nH]c2c1	.	-25%	.	-21%	-7%	-1%	-8%	.
42	COc1ccc(NC(=O)C(NS(=O)(=O)c2ccc3c(c2)CCCC(=O)N3)C(C)C)c(OC)c1 (stereo not drawn)	1.5%	9%[46.1 µM]	2%	.	.	.	5%	.
43	Cc1ccccc1NC(=S)N1CCN(Cc2ccc3c(c2)OCO3)CC1	1.1%	-2%	-4%	?	1%	?	?	6%
44	Cc1ccc(S(=O)(=O)N(C)CC(=O)N2CCOCC2)cc1	3.2%	-15%	17%	1%[46.1 µM]	18%	4%	-7%	-2%
45	Nc1nnc(CC(=O)N/N=C/c2cccc([N+](=O)[O-])c2)s1	-0.7%	8%	-10%	6%	-1%	6%	8%	-2%
46	Cc1cc(C)nc(NCC(O)CNc2ccccc2C)n1 (stereo not drawn)	3.6%	-2%	1%	-1%	-20%	1%	-5%	-11%
47	CCN(CCn1cccn1)Cc1nc(-c2ccc(OC)cc2)no1	.	?	.	9%[46.1 µM]	-1%	0%	-7%	-4%
48	CCCCn1c(N)c(N(CCC(C)C)C(=O)COC(=O)c2ccc([N+](=O)[O-])s2)c(=O)[nH]c1=O	.	1%	.	-1%	-13%	4%	-23%	.
49	C/C(=N\NC(=O)c1cccc(N/N=C(\C)c2ccc([N+](=O)[O-])cc2)c1)c1ccc([N+](=O)[O-])cc1	.	.	.	3%	7%	4%	-13%	5%
50	O=C(C1CCCN(S(=O)(=O)c2cc(Cl)ccc2Cl)C1)N1CCCC1 (stereo not drawn)	.	-12%	.	-11%	-4%	-8%	?	0%
51	Cc1cccc(C(=O)NCCc2ccc(S(N)(=O)=O)cc2)c1[N+](=O)[O-]	-5.2%	3%	-5%	16%	-1%	13%	0%	2%
52	Cc1ccc(-n2nc(C)c3nc(CCC(=O)Nc4cccc(C)c4C)c(=O)n(C)c32)cc1	1.2%	?	1%	.	.	.	-4%	.
53	Cc1cccc(NC(=O)c2sc(-c3ccccc3)nc2-c2ccc([N+](=O)[O-])cc2)c1	-5.9%	-11%	20µM*	-6%	-4%	-20%	2%	?
54	CCC(C(=O)NCc1cccnc1)n1nc(C)c2sc3ccccc3c2c1=O (stereo not drawn)	.	-10%[46.1 µM]	.	-25%[46.1 µM]	-10%	-4%	-15%	-15%
55	COc1ccc(-c2ccc(CCC(=O)O)n2-c2ccccc2OC)cc1	.	.	.	.	9%	5%	0%	22%
56	CCOC(=O)CSC1=Nc2ccccc2C2=NC(CC(=O)NCc3ccc(OC)cc3)C(=O)N12 (stereo not drawn)	-3.6%	3%	-12%	18%&18%	3%	7%	18%	12%
57	CCOC(=O)C(NC(=O)OC(C)C)(Nc1nccs1)C(F)(F)F (stereo not drawn)	1.0%	-2%	4%	?	0%	-5%	-19%	?
58	CC(C)(C)SCCNC(=O)CN1C(=O)c2cccc3cccc1c23	.	10%[46.1 µM]	.	1%[46.1 µM]	-2%	15%	-14%	16%

Compound activity as filed in PubChem BioAssay.
